Assay outcomes as filed in PubChem.
HSD17B inh: blocks hydroxysteroid 17-beta dehydrogenase activity. Q99714. recombinant HSD17B10, NADH fluorescence kinetic; many of its hits are not listed in these tables. Potency, µM (series often up to 57.1 µM), for inactives: at the top dose activity change, negative = inhibition, hits mostly inhibitors. hit rate 7.6% among 75,000. AID 893; active means well fitted inhibition curve with a large enough effect; inconclusive means small, poorly fitted or top-dose-only effect; inactive means no such curve, though single readings can be large or run the other way;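 further: the protocol describes HADH2 (HSD17B10) and not the HSD17B4 of the title; nearly all actives have a fitted effect of over 70% in size; most hits overshoot -100% by far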
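Activity followed as NADH fluorescence increase (ex 360, em 450 nm) every 30 seconds for 4 min, using final 90 uM beta-hydroxybutyryl CoA and 1 mM NAD+. Recombinant His-tagged enzyme, 20 nM, pH 9.0 Tris buffer, 15 min compound preincubation.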
Numbers without * were called inactive; i = inactive; ? = inconclusive; [ ] = remark or other dose. On the % scale 0 is the no-effect control and ±100 the full control effect; potency means the concentration at half of the fitted maximal effect. Only part of the results is shown (hit frequency here may not be typical).

nr	SMILES	HSD17B inh
1	CCOc1cc(NC(=O)C2CC2)c(OCC)cc1NC(=O)c1ccccn1	2.2%
2	COCCn1nnnc1C(c1ccc(OC)cc1OC)N1CCN(c2ccccc2F)CC1 (stereo not drawn)	11.2%
3	Cn1c(=O)c2c(nc(SC3C(=O)CC(C)(C)CC3=O)n2C)n(C)c1=O	2.0%
4	CCCCOCCCNC(=O)N[C@H](C(=O)OC)C(C)C	6.6%
5	COc1ccc(OC)c(NC(=O)C2CCC(CNc3c(N4CCC(C)CC4)c(=O)c3=O)CC2)c1 (stereo not drawn)	?
6	COc1ccc(-c2nnc(SCC(=O)c3[nH]c(C)c(C(C)=O)c3C)o2)cc1	-1.6%
7	CCCSc1nc2c(c(=O)[nH]c(=O)n2C)n1C	2.0%
8	CC(=O)/C(=C\c1ccccc1)CC(=O)O	-10.7%
9	O=C(Nc1cccc(F)c1)N1CCC2(CC1)CCN(C(=O)c1cnccn1)CC2	1.4%
10	Cc1noc(C)c1S(=O)(=O)N1CCC(C(=O)NCCC2=CCCCC2)CC1	3.2%
11	Cc1[nH]nc2c1C(Cc1ccccc1)C(C#N)=C(N)O2 (stereo not drawn)	-0.8%
12	CCOc1ccc(CN2CCC(=O)NC2=O)cc1	17.0%
13	CCc1nnc(SCC(=O)N2CCCc3ccccc32)nc1CC	-14.3%
14	COc1ccccc1-c1cncnc1N1CCN(C)CC1	-16.3%
15	CCCCN(CC)S(=O)(=O)c1ccc(C(=O)Nc2nnc(-c3ccccc3Cl)o2)cc1	-15.1%
16	CC(Sc1nc2ccccc2o1)C(=O)O (stereo not drawn)	6.8%
17	COC(=O)C1=C(C)Nc2nnnn2C1c1ccco1 (stereo not drawn)	-0.2%
18	COc1ccc(C(=O)NC(=O)CSc2nnc(-c3ccco3)n2-c2ccccc2)cc1	-19.2%
19	N#CCn1nnc(-c2ccc3c(c2)OCO3)n1	0.0%
20	CCOCC(=O)Nc1ccccc1C(=O)OCC	?
21	O=C(CSc1nnc(CNc2ccc(F)cc2)n1Cc1ccccc1)N1CCOCC1	0.9%
22	CCOc1ccc(N2C(=O)c3ccc(C(=O)OCc4c(C)noc4C)cc3C2=O)cc1	4.6%
23	Cc1ccc(N2CC(C(=O)Nc3nnc(C(C)C)s3)CC2=O)cc1 (stereo not drawn)	-9.6%
24	COC(=O)c1cc(NC(=O)C2COc3ccccc3O2)ccc1Cl (stereo not drawn)	-0.7%
25	O=C(CN(CCc1ccccc1)C(=O)CNS(=O)(=O)c1ccccc1)NCc1ccco1	1.6%

Given as labelled records: two of the compounds above.
6: COc1ccc(-c2nnc(SCC(=O)c3[nH]c(C)c(C(C)=O)c3C)o2)cc1
- HSD17B inh = -1.6%

7: CCCSc1nc2c(c(=O)[nH]c(=O)n2C)n1C
- HSD17B inh = 2.0%

Going on with the list:
nr	SMILES	HSD17B inh
26	O=C(O)c1ccccc1Nc1cccc(OCc2ccc3ccccc3n2)c1	?
27	CCOC(=O)N1CCC(NC(=O)CC(NS(=O)(=O)c2ccc(Cl)cc2)c2ccco2)CC1 (stereo not drawn)	-4.5%
28	COc1ccc(N(C(=O)C2CCCCC2)C2C=CS(=O)(=O)C2)c(OC)c1 (stereo not drawn)	3.3%
29	COc1ccc(OC)c(-c2cc(C(=O)Nc3cccc(Cl)c3)no2)c1	31.6µM*
30	CCn1c(O)c(C2=NCCCC2)c2ccccc21	-0.7%
31	Cc1ccc(-n2ncc3c(=O)n(CC(=O)NCc4ccco4)cnc32)cc1C	?
32	COc1cc2c(cc1NC(=O)CSc1nnnn1-c1ccccc1)oc1ccccc12	?
33	Clc1ccccc1-c1nnc2sc(-c3ccncc3)nn12	-12.8%
34	CCCC(C(=O)NC1CCCC1)N(C(=O)Cn1nnc(-c2ccc(C)o2)n1)c1ccccc1OC (stereo not drawn)	5.8%
35	COc1ccccc1NC(=O)N(Cc1cc2cc(OC)c(OC)cc2[nH]c1=O)CC1CCCO1 (stereo not drawn)	25.1µM*
36	COc1cccc(C(=O)Nc2ccc(NC(=O)C(C)(C)C)cn2)c1	-2.8%
37	COc1ccc(-n2c(=O)c(-c3cccs3)nc3cncnc32)cc1	-26.1%
38	CCCc1nc2c(nnn2Cc2ccccc2)c(=O)[nH]1	6.7%
39	CCN(CCCNC(=O)Cn1ncc2c(=O)oc3ccccc3c21)c1cccc(C)c1	-17.4%
40	COc1cccc(C(=O)Nc2ccccc2N2CCOCC2)c1	-0.8%
41	CCOC(=O)c1[nH]c(C)c(C)c1C	1.7%
42	CCOC(=O)C(C(=O)N1CCOCC1)C1CCCCC1 (stereo not drawn)	-15.2%
43	COc1cccc(Cn2c(=O)c(-c3ccc(F)cc3)nc3cncnc32)c1	-0.3%
44	O=c1sc2ccccc2n1COc1ccccc1	-1.7%
45	CCNC(=O)c1ccc2c(c1)S(=O)(=O)c1ccccc1C2=O	4.5%
46	O=C(COc1ccc2ccccc2c1Br)Nc1ncn[nH]1	-3.8%
47	O=C(Nc1ccc(Cl)cn1)c1ccc(COCC(F)(F)C(F)F)o1	-2.4%
48	CO/N=C(/C(=O)N[C@@H]1C(=O)N2C(C(=O)O)=C(COC(N)=O)CS[C@H]12)c1ccco1	-0.4%
49	O=S(=O)(Nc1cccc(-c2nc3cccnc3s2)c1)c1ccc2c(c1)OCCO2	-4.2%
50	COc1cc2nc(C)sc2cc1SC	3.5%
51	C=CCN1C(=O)C2(C(C#N)=C(N)Oc3n[nH]c(CCC)c32)c2ccccc21 (stereo not drawn)	0.2%
52	CCN(Cc1ccccc1)C(=O)Cn1c(=O)n(CC(=O)NCc2ccco2)c(=O)c2sccc21	4.9%
53	O=C(OCCN1C(=O)c2ccccc2C1=O)C1CCN(S(=O)(=O)c2cccs2)CC1	7.6%
54	CC(C)c1ccccc1OCCNS(C)(=O)=O	2.9%
55	CCOc1cc(C2C(C#N)=C(N)Oc3n[nH]c(C)c32)ccc1OCCN1CCOCC1 (stereo not drawn)	2.0%
56	N#Cc1nc(Cc2ccccc2)oc1NCc1ccccc1Cl	-11.4%
57	COc1cc(C2Nc3cccc4cccc(c34)N2)ccc1OC(C)=O	5.5%
58	CCn1c(SCC(=O)NC)nnc1C(C)C	10.7%
59	CN(C)C(=O)c1ccc(-c2nccc(NCc3ccccc3)n2)cc1	-3.1%
60	O=C(CN(C(=O)CSc1nnc(COc2ccccc2)o1)c1ccc(F)cc1)NC1CCCCC1	-1.9%
61	CN(C)c1nc(N)c(C(=O)Nc2cccnc2)nc1Cl	i
62	Cc1ccc(S(=O)(=O)NC(=O)c2cc(C)n(CCCn3ccnc3)c2C)cc1	5.3%
63	COc1ccc(NC(=O)NCCCN2CCN(c3cc(C)ccc3C)CC2)cc1	13.1%
64	CCOC(=O)Nc1ccc2c(c1)N(C(=O)CCN(C)C)c1ccccc1S2	-5.2%
65	O=C(CCN1CCN(c2ccccn2)CC1)Nc1ccc(F)cc1	0.7%
66	O=P(O)(CCc1ccccn1)CN1CCCCC1	6.7%
67	CCC/C=C/C1C(=O)C2OC2C2(OCC(CC)(CC)CO2)C1CO (stereo not drawn)	-9.5%[11.4 µM]
68	O=C(NCc1ccc(Cl)cc1)C1C2C=CC3(CN(Cc4cccnc4)C(=O)C13)O2 (stereo not drawn)	-8.9%
69	Cc1nn(-c2cc(C)c3ccccc3n2)c2c1CCC2	-1.4%
70	CCC(C(=O)N1CC2(C)CC1CC(C)(C)C2)N1C(=O)c2ccccc2C1=O (stereo not drawn)	-1.6%
71	COc1cccc(Nc2ncc3nc(C)c(=O)n(C)c3n2)c1	10.5%
72	NC(=O)c1ccsc1NC(=O)COC(=O)c1ccccc1NCc1ccco1	25.1µM*
73	CC(C)(C)n1ncc2c(=O)n(CC(=O)N3CCN(c4ccccc4)CC3)cnc21	4.3%
74	CCn1c(SCC(=O)Nc2cccc(F)c2)nnc1-c1cc2cc(Br)ccc2o1	-3.5%
75	COC(=O)c1cccc(NS(=O)(=O)c2cccs2)c1C	3.4%

(further entries)
nr	SMILES	HSD17B inh
76	COc1cccc(-c2nn(-c3ccccc3)cc2C(=O)Nc2nccs2)c1	?
77	COC(=O)CCP(=O)(O)Cc1ccccc1CP(=O)(O)CCC(=O)OC	13.5%
78	O=C(Nc1ccc(S(=O)(=O)N2CCCC2)cc1)C1COc2ccccc2O1 (stereo not drawn)	-1.8%
79	COc1ccccc1C(=O)Nc1c2c(nn1-c1cccc(C)c1C)CS(=O)(=O)C2	?
80	Cc1cc(C(=O)N2CCN(c3ncccn3)CC2)c(C)o1	-9.4%
81	CC(C)NS(=O)(=O)c1ccc2c(c1)oc(=O)n2C	-0.4%
82	Cc1cnc(NC(=O)c2c(O)c3cccc4c3n(c2=O)CCC4)s1	0.9%
83	Cc1ccc(NC(=O)N2CCCN(Cc3ccc(F)cc3)C2)cc1C	-2.7%
84	CC(C)C(=O)Nc1c2c(nc3c1CCC3)CCCC2	9.1%
85	COCCOC(=O)C1=C(C)NC(=O)NC1C1CC=CCC1 (stereo not drawn)	4.6%
86	O=C(CCN1C(=O)COc2ccccc21)NCCN1CCOCC1	3.5%
87	COc1ccccc1-c1nc2s/c(=C\c3cccs3)c(=O)n2n1	-19.3%
88	CN(C)C(=O)c1ccc(-c2ccc3ncnc(NCc4cccnc4)c3c2)cc1	31.6µM*
89	Cc1cnc(-c2nnc(N(C)C(=O)c3ccncc3)s2)cn1	-8.6%
90	COC(=O)c1ccc(C(NC(=O)OCc2ccccc2)/C(=C/[C@@H](C)C(=O)NCc2ccc(OC)c(O)c2)c2cccnc2)cc1 (stereo partly drawn)	-18.5%
91	CC(C)NC(=O)C1(O)c2ccccc2NC(=O)N1c1ccc(Cl)c(Cl)c1 (stereo not drawn)	9.0%
92	COc1cccc(N(CC(=O)Nc2ccccc2C)S(C)(=O)=O)c1	6.4%
93	O=C1C=C(NC2CC2)C2(CCCCC2)O1	3.1%
94	CCOC(=O)N1CCN(Cc2cc(=O)oc3ccc4ccccc4c23)CC1	?
95	O=C(Nc1nonc1NC(=O)C1CCCCC1)C1CCCCC1	-2.2%
96	CCN1CCN(c2ccc(NC(=O)COc3ccccc3Cl)cc2)CC1	-0.8%
97	COc1ccc(-c2cc(C(F)(F)F)nc(S(C)(=O)=O)n2)cc1OC	128.2%[activator]
98	COc1ccc(C)cc1N(CC(=O)O)S(=O)(=O)c1ccc(C)cc1	10.9%
99	CCSc1nc2c(c(=O)[nH]c(=O)n2C)n1C	13.4%
100	CN(C)c1ccc(C(CC(=O)O)NC(=O)c2ccc(Cl)cc2)cc1 (stereo not drawn)	-6.7%

Overlap with the part before: five compounds, followed by the next part.
nr	SMILES	HSD17B inh
96	CCN1CCN(c2ccc(NC(=O)COc3ccccc3Cl)cc2)CC1	-0.8%
97	COc1ccc(-c2cc(C(F)(F)F)nc(S(C)(=O)=O)n2)cc1OC	128.2%[activator]
98	COc1ccc(C)cc1N(CC(=O)O)S(=O)(=O)c1ccc(C)cc1	10.9%
99	CCSc1nc2c(c(=O)[nH]c(=O)n2C)n1C	13.4%
100	CN(C)c1ccc(C(CC(=O)O)NC(=O)c2ccc(Cl)cc2)cc1 (stereo not drawn)	-6.7%
101	CCOc1cccc(-c2nnc3sc(-c4cc(OC)c(OC)cc4OC)nn23)c1	2.8%
102	CCCOC(=O)Nc1ccc(N2CCCCC2)cc1	-1.4%
103	Clc1cccc(N2CCN(Cc3nc(-c4ccccc4)no3)CC2)c1	-0.7%
104	O=C(CSc1nc(-c2ccco2)cc(C(F)(F)F)n1)N1CCSCC1	-1.6%
105	Cc1ccccc1OCc1nc2c3cnn(C)c3ncn2n1	-6.1%
106	OCl	5.7%
107	CCOC(=O)CNC(=O)CN1C(=O)CCSc2ccccc21	2.0%
108	CS(=O)(=O)N(CC(=O)N1CCN(c2ccccc2)CC1)c1cc(C(F)(F)F)ccc1Cl	-3.8%
109	CCOc1ccc2[nH]c(=O)c(CN(CC3CCCN3CC)C(=O)NCc3ccccc3)cc2c1 (stereo not drawn)	31.6µM*
110	Cc1cc2n(n1)C(c1ccc3c(c1)OCO3)Nc1ccccc1-2 (stereo not drawn)	25.1µM*
111	COCCNC(=O)c1ccc2c(=O)n(CCOC)c(=O)[nH]c2c1	31.6µM*
112	Cn1c(=O)n(C)c2cc(S(=O)(=O)O)ccc21	2.2%
113	Cc1[nH]c(=O)[nH]c(=O)c1NC(=O)c1cccs1	1.3%
114	Cc1nnc(SCC(=O)Nc2nccs2)[nH]c1=O	0.0%
115	O=C(O)CCCNc1ccc(S(=O)(=O)Nc2ccccc2C(=O)O)cc1C(=O)O	?
116	COC(=O)c1cccc(S(=O)(=O)N(Cc2ccco2)Cc2cc3ccc(OC)cc3[nH]c2=O)c1	?
117	CCc1cc2c(NCC(=O)O)ncnc2s1	8.8%
118	CC(=O)C1C(c2ccc(Cl)cc2)NC(=O)NC1(O)C(F)(F)F (stereo not drawn)	0.7%
119	CCOC(=O)N1CCN(C(=O)c2ccccc2NC(=O)COc2ccccc2C)CC1	-2.2%
120	Cc1cc(C)cc(N(CC(=O)N2CCc3ccccc32)S(=O)(=O)c2c(C)noc2C)c1	-3.6%
121	CCCNC(=O)C1CCN(S(=O)(=O)c2ccc3nc4c(c(C(=O)O)c3c2)CCCCC4)CC1	-3.6%
122	Cc1cc(N/C=C2\CCCCC2=O)no1	-15.1%
123	CCOc1ccccc1C(=O)N(CN1CCCC1=O)c1ccc(C)c(Cl)c1	12.0%
124	Cc1nn(C)c(C)c1NC(=O)CSc1nnc(C)n1-c1ccccc1	0.6%
125	COc1ccccc1/C=C/CN1CC(C)OC(C)C1 (stereo not drawn)	10.6%
126	Cc1cc2cc(CCNS(C)(=O)=O)c(=O)[nH]c2cc1C	31.6µM*
127	CP(=O)(COC(=O)c1ccccc1)COC(=O)c1ccccc1	3.0%
